# From PubChem
# NPYLR7 agonist: mosquito NPYLR7 agonism | HEK293T NPYLR7/Galpha15, GCaMP6s calcium fluorescence | activation, % at 10 µM | 270,000 tested, 0.15% active | AID 1259423; in the data active means activation above about 40%;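 further: 0% = vehicle and 100% = reference agonist at the receptor; some compounds past the cut are filed as inactive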
# NPYLR7 agonist max-min: further read-out of NPYLR7 agonist, marked with its call; activation, %; measured here: Max-Min RFU normalised activation; some inactives read as strong as hits;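 span of the calcium signal over five minutes; 0% = vehicle and 100% = native peptide agonist; compound fluorescence can raise it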
# * = called active by the depositor; i = inactive; & = joins results of further samples.
SMILES,NPYLR7 agonist,NPYLR7 agonist max-min
N#Cc1c(SCC(=O)c2ccc(Cl)cc2)nc2c(c1-c1ccc(O)cc1)CCCC2,-2,-10
CCc1ccc(S(=O)(=O)N2CCN(c3nccc(-c4ccc5c(c4)OCO5)n3)CC2)cc1,4,1
COc1ccc(-n2c(SCc3ccc(C(=O)NCc4ccco4)cc3)nnc2-c2ccncc2)cc1,-1,1
CCN(CC)C(=O)c1cc(-c2ccccc2OC)nc2cc(-c3ccc(Cl)cc3)nn12,-11,-8
Cc1nc2c(-c3ccccc3)c(C)[nH]n2c(=O)c1Cc1ccccc1,-2,-6
CC1(Cc2ccccc2OC(F)(F)F)C(=O)Nc2ccc(OC(F)(F)F)cc21 (stereo not drawn),3,3
Fc1ccccc1-c1nc(N2CCN(c3cccc(C(F)(F)F)c3)CC2)c2ccccc2n1,5,4
COc1ccc(CN(Cc2cnn(C)c2)CC(C)C)cn1,-4,-6
O=C(Nc1ccncc1)C1CCN(C(=O)c2ccc3c(c2)CCCC3)CC1,1,-1
Cc1ccccc1/[N+]([O-])=C/c1ccc(OC(F)F)cc1,-2,-3
Cc1ccc(NC(=O)c2ccccc2)c(NC(=O)CCN2CCCCO2)c1,-4,-9
COc1ccc(Cc2ncc3c(n2)CN(C(=O)C2CNC(=O)C2)C3)cc1 (stereo not drawn),4,2
Cc1cc2cc(CNC(=O)Cc3ccc(-c4ccccc4)cc3)ccc2n1C,7,3
Cc1ccc2cc(CN3CCN(C)C(C(=O)O)C3)c(N3CCOCC3)nc2c1 (stereo not drawn),-3,-3
CC(Nc1ccc(-c2nc(Cc3ccccc3)no2)cn1)c1nncn1C (stereo not drawn),9,3
CN1CCCN(C(=O)c2ccc3nc(-c4ccc(Cl)cc4)[nH]c3c2)CC1,8,9
COCCN(Cc1nc(C(=O)N2CCN(Cc3ccc4c(c3)OCO4)CC2)cs1)C(=O)Nc1cccc(Cl)c1,6,13
O=C1OC23CCC(CC2)N(S(=O)(=O)c2cccs2)C3CN1Cc1ccccc1 (stereo not drawn),4,11
CC(C)c1ccc(NC2CCCN(C(=O)c3cccc(N4CCCC4=O)c3)C2)cc1 (stereo not drawn),-3&5,-6&0
COCC(C)(C#N)NC(=O)c1cnn(-c2ccccc2Cl)c1C (stereo not drawn),0,-1
CCc1nc2c(OCc3ccc(OC)cc3)cccn2c1N(C)C(=O)C1CC1,-23,-12
CCOC(=O)CNC(=O)NCc1cccnc1Oc1ccccc1C,-3,-6
CCN1CCN(C(=O)c2cc(=O)c3ccccc3o2)C(C)C1=O (stereo not drawn),3,2
Cc1cc(C)c2c(n1)nn1c(N3CCN(CCc4ccccc4)CC3)cc(C)nc21,1,22
CC(C)(C)c1cc(O)c2c(c1)C1CC(C)(O2)N(c2cccc(C(=O)O)c2)C(=O)N1 (stereo not drawn),-7,-9
CCCn1cc(Cc2cn(CCC)nc2C)c(C)n1,5,3
CN1CCN(CC2CCOC2)CC12CCN(C(=O)CCC1CCCC1)CC2 (stereo not drawn),1,0
Cc1ccc(C(=O)N=Nc2c(O)[nH]c3cc(Br)c(C)cc23)cc1,-11,-15
CCOC(=O)c1sc(NC(=O)C2CCCO2)c(C(=O)OCC)c1C (stereo not drawn),-1,21
Cc1ccc(OCCCS(=O)(=O)N(C)C)nc1,-3,-8
CCOC1CC(N(C)CCC(=O)N2CCOCC2)C1(C)C (stereo not drawn),5,4
C[C@H](O)C(=O)Nc1c(I)c(C(=O)NC(CO)CO)c(I)c(C(=O)NC(CO)CO)c1I,0,-5
CCN(CC)CCn1c2c(c(SCC(=O)NCc3ccccc3)nc1=O)CCCC2,-2,5
O=C(COc1ccccc1)Nc1cc2c(cc1Br)OCCO2,5,1
COCCN(CC(=O)N(CCc1ccccc1)Cc1ccc(C)o1)Cc1ccc(Br)cc1,0,9
CCN(CC)Cc1cnc2c(C(=O)NCc3ccc4c(c3)OCO4)cnn2c1,1,-1
O=C(Cn1cnc(-c2ccc(F)cc2)cc1=O)c1ccc(Cl)cc1,-16,-17
O=C(Nc1cccs1)Nc1nnc([C@@H]2C[C@H](O)[C@@H](CO)O2)s1,-1,-3
CCCn1cc(NC(=O)c2cccc(CN3CC[C@H](O)C3)c2)nn1,-2,-3
CC(C)C(C(=O)O)N1C(=O)/C(=C2/C(=O)N(C)c3ccccc32)SC1=S (stereo not drawn),0,-4
O=C(C1CC1)N1CCN(C(=O)[C@@H]2CCCN2)CC1,11,6
COc1ccccc1C(O)Cn1c(=O)[nH]c2ccccc2c1=O (stereo not drawn),6,4
Cc1nc2c(cc(Oc3ncnc4sc5c(c34)CCCC5)c3ccsc32)s1,-4,-6
Cn1cc(C(=O)NCc2ccccc2)c2[nH]c(=O)n(Cc3ccccc3)c(=O)c21,6,5
CN1CC2N(C(=O)c3cccc4c3OC(F)(F)O4)C3CCC2(CC3)OC1=O (stereo not drawn),23,25

# Quoted from the listing.
# Value for COc1ccccc1C(O)Cn1c(=O)[nH]c2ccccc2c1=O (stereo not drawn) under NPYLR7 agonist max-min: 4
# Value for O=C(Nc1cccs1)Nc1nnc([C@@H]2C[C@H](O)[C@@H](CO)O2)s1 under NPYLR7 agonist: -1
# Value for Cc1nc2c(cc(Oc3ncnc4sc5c(c34)CCCC5)c3ccsc32)s1 under NPYLR7 agonist max-min: -6

# The main list resumes with the 6 entries that preceded the break.
SMILES,NPYLR7 agonist,NPYLR7 agonist max-min
CC(C)C(C(=O)O)N1C(=O)/C(=C2/C(=O)N(C)c3ccccc32)SC1=S (stereo not drawn),0,-4
O=C(C1CC1)N1CCN(C(=O)[C@@H]2CCCN2)CC1,11,6
COc1ccccc1C(O)Cn1c(=O)[nH]c2ccccc2c1=O (stereo not drawn),6,4
Cc1nc2c(cc(Oc3ncnc4sc5c(c34)CCCC5)c3ccsc32)s1,-4,-6
Cn1cc(C(=O)NCc2ccccc2)c2[nH]c(=O)n(Cc3ccccc3)c(=O)c21,6,5
CN1CC2N(C(=O)c3cccc4c3OC(F)(F)O4)C3CCC2(CC3)OC1=O (stereo not drawn),23,25
Cc1cccc(C)c1OC1CN(c2ncnc3c2CCN(C(=O)C2CC2)C3)C1,-2,-2
Cc1nc(NCCNC(=O)Nc2cccc(C)c2C)cc(N2CCOCC2)n1,0,0
CC1CN(C(=O)c2ccc(CNc3ccc(C#N)cn3)cc2)CC(C)O1 (stereo not drawn),4,2
COc1cccc(CN2CCN(Cc3cccc4cccnc34)CC2CCO)c1 (stereo not drawn),-7,-7
CNC(=O)c1c(I)c(NC(C)=O)c(I)c(C(=O)O)c1I,1,0
CC(C)c1cnc2cc(=O)[nH]n2c1C(=O)O,-2,2
CN(C)C1(CNc2ccc(S(C)(=O)=O)cc2S(N)(=O)=O)CCCCCC1,10,i
Cc1cccn2c(=O)c(C=Nc3ccc(Cl)cc3)c(NCCO)nc12,-4,-6
Cc1ccc[n+](C2=C(c3c(C)[nH]n(-c4ccccc4)c3=O)C(=O)N(c3ccccc3)C2=O)c1,-4,0
Cc1cccc(C(=O)NC(C(=O)N2CCCC2)C2CCN(C(=O)c3ccccc3F)CC2)c1 (stereo not drawn),16,17
COc1cccc(-c2nn(-c3ccccc3)cc2CN2CCC(CN3CCOCC3)CC2)c1,11,5
C=CCC(O)(CC=C)c1ccc(CN(CCC)Cc2cccc(C)c2)o1,-1,6
COc1cccc(OC)c1OCCN1CCC(C(=O)NC(c2ccccc2)c2ccccn2)CC1 (stereo not drawn),7,-1
Cc1nc2scc(C)n2c(=O)c1NC(=O)CCCc1ccccc1,9,-1
Cc1ccn2c(NC(C)(C)C)c(-c3ccc(Cl)cc3)nc2c1,8&-1,8&-2
Cc1cc(Cl)cc(C)c1OCC(=O)NNc1ccc(F)cc1,-1,-2
COc1ccc(NC(=O)Cn2cc(NC(=O)C3(C#N)CC(C)C3)cn2)cc1 (stereo not drawn),1,22
CCC(C)N(CC(=O)N(CCc1ccc(OC)c(OC)c1)Cc1cccs1)C(=O)Nc1cc(C(F)(F)F)cc(C(F)(F)F)c1 (stereo not drawn),-10,-15
CCCCc1ccc(-c2nc(C=Nc3ccc(F)cc3)c(O)o2)cc1,4,-1
COc1ccc(NC(=O)CCC2CCCN(Cc3cnc(SC)nc3)C2)c(C)c1 (stereo not drawn),5,-6
Cc1cc(Oc2cnn(C)c(=O)c2Nc2cccc(C(=O)N3CCOCC3)c2)ccc1Cl,11,13
CN(C)c1ccc(/C=C2N=C(/C=C/c3ccccc3)OC/2=O)cc1,-1,-4
CC1CC(=O)Nc2c1c(NC(=O)CCS(=O)(=O)c1ccccc1)nn2C (stereo not drawn),-14,-21
O=C1NCCN(C(=O)c2cc(COc3ccccc3)on2)C1c1ccc(F)cc1 (stereo not drawn),-3,-5
CC=CCn1c(=O)c2c(nc3n(-c4ccc(O)cc4)c(C)c(C)n23)n(C)c1=O,1,3
CN(Cc1ccccc1)C1(C(=O)NCCc2cscn2)Cc2ccccc2C1,17,10
COCCNc1nc(CN2CCCCC2C(=O)OC)nc2c(C)cccc12 (stereo not drawn),13,8
CC=CCn1c(=O)c2c(nc3n(CCN4CCOCC4)c(C)cn23)n(C)c1=O,-2,36
Brc1cc(-c2ccccc2)c(CN2CCOCC2)s1,2,2
CC(=O)Nc1sc(/C(C#N)=C/c2ccccc2)nc1-c1ccc(C)cc1,10,15

# Random excerpt: 5 entries already listed.
SMILES,NPYLR7 agonist,NPYLR7 agonist max-min
COCCNc1nc(CN2CCCCC2C(=O)OC)nc2c(C)cccc12 (stereo not drawn),13,8
COc1ccc(NC(=O)Cn2cc(NC(=O)C3(C#N)CC(C)C3)cn2)cc1 (stereo not drawn),1,22
CC=CCn1c(=O)c2c(nc3n(-c4ccc(O)cc4)c(C)c(C)n23)n(C)c1=O,1,3
Cc1cc(Cl)cc(C)c1OCC(=O)NNc1ccc(F)cc1,-1,-2
CCCCc1ccc(-c2nc(C=Nc3ccc(F)cc3)c(O)o2)cc1,4,-1

# A draw from above in order of length of the SMILES, ascending:
SMILES,NPYLR7 agonist,NPYLR7 agonist max-min
Brc1cc(-c2ccccc2)c(CN2CCOCC2)s1,2,2
CCCCc1ccc(-c2nc(C=Nc3ccc(F)cc3)c(O)o2)cc1,4,-1
CN(C)c1ccc(/C=C2N=C(/C=C/c3ccccc3)OC/2=O)cc1,-1,-4
CC1CC(=O)Nc2c1c(NC(=O)CCS(=O)(=O)c1ccccc1)nn2C (stereo not drawn),-14,-21
COc1ccc(NC(=O)Cn2cc(NC(=O)C3(C#N)CC(C)C3)cn2)cc1 (stereo not drawn),1,22

# Going on with the list:
SMILES,NPYLR7 agonist,NPYLR7 agonist max-min
CCOc1ccc(C=Nc2cccc(Cl)c2C)cc1,8,11
CCOC(=O)CSC1=NN2CCCC(=O)N=C2S1,15,8
COc1ccc(C2=N/C(=C\c3coc4ccccc4c3=O)C(=O)O2)cc1OC,-7,-15
O=C(CSc1nnc(-c2cccs2)n1Cc1ccccc1)c1ccc(O)c(O)c1,0,5
Clc1ccc(Cn2ncc3c(Nc4ccc(Cl)cc4)ncnc32)cc1,-4,-8
COc1ccc(C(C)(O)c2nc(-c3csc4ccccc34)cs2)cc1 (stereo not drawn),10,8
Cc1cccc(-c2cnc(C(O)c3ccc(-c4ccccc4)cc3)[nH]2)c1 (stereo not drawn),1,0
C=CCn1c(N2CCN(Cc3ccccc3C)CC2)nc2c1c(=O)[nH]c(=O)n2C,-7,-8
Cc1csc(-c2coc3cc(O[C@@H]4O[C@H](CO)[C@@H](O)[C@@H](O)[C@H]4O)ccc3c2=O)n1,6,4
COc1ccc(OC)c2sc(N(Cc3ccccn3)C(=O)c3ccno3)nc12,-8,-13
CCN(CC)S(=O)(=O)c1ccc(C(=O)N2CCN(C(=O)C(C)C)CC2)cc1,8,9
CC(=O)c1ccc(NS(=O)(=O)c2ccc(Br)c(C)c2)cc1,14,5
Cc1ccc(-n2ncc(Oc3ccccc3F)c(Nc3cccc(C(=O)NCc4ccco4)c3)c2=O)cc1,11,8
CCN(CC)C(=O)Cn1cc(C(=O)N2CCN(CC)C(=O)[C@@H]2C)nn1,21,11
Cc1ccc(CNC(=O)NCc2ccccc2S(=O)(=O)N(C)C)cc1F,2,-3
Nc1ncc2c(n1)CCC(N)C2 (stereo not drawn),8,17
CC(=O)N(CN1C(=O)c2cccc([N+](=O)[O-])c2C1=O)c1ccc(Cl)c(Cl)c1,7,2
COC(=O)c1cc2n(n1)CCN(C(=O)c1cc3c(nc1OC)CCC3)C2,25,17
O=C1CC(Sc2nc3ccccc3o2)C(=O)N1c1cccc(C(F)(F)F)c1 (stereo not drawn),3,1
O=C(O)c1cccc(NC2=C(n3nnc4ccccc43)C(=O)c3ccccc3C2=O)c1,1,-3
Cc1ccc(-n2ncc3c(=O)n(NC(=O)/C=C/c4ccccc4)cnc32)cc1C,-1,-2
COc1ccccc1N1CCN(c2cc(Oc3ccc(F)c(Cl)c3)ncn2)CC1,2,7
CCOC(=O)[C@@H]1[C@H](c2ccccc2)[C@@H](NS(C)(=O)=O)[C@H]2CCCN21,10,18
CC(C(=O)N1CCNC1=O)N1CCN(S(=O)(=O)c2cccc(Br)c2)CC1 (stereo not drawn),-6,2
O=C(CC1COCCN1)N1CCC2(CCc3ccccc32)CC1 (stereo not drawn),-4,-4
CCC(=O)N1C(C(=O)N2CCCC2)COC12CCCC(C)C2 (stereo not drawn),-1,11
CCC(C)N(Cc1c(-c2ccccc2F)noc1N1CCOCC1)C(=O)Cc1ccccc1 (stereo not drawn),9,14
CCc1[nH]ncc1C(=O)N1C[C@H]2CC=C(C)C[C@H]2C1,6,-2
COc1ccccc1-n1nc(C(C)C)nc1CCc1cccnc1,15,14
Cc1noc(C)c1CS(=O)C(C)C(=O)NCC(F)(F)F (stereo not drawn),2,0
COc1nn(C)cc1C(=O)N1CCCC1,2,5
COc1cc(OC)c(OC)cc1/C=C1N=C(/C=C/c2ccccc2OC)OC\1=O,-2,-4

# This is a subset; count on the stated rates, not on these rows.
